# BJeLR viability = MLPCN primary cell-based screen for lethality selective to Ras in HRASV12 cells | inhibition, % (test concentration not listed) | actives 0.17% (n = 300,000) | BJeLR (HRASV12) viability, CellTiter-Glo ATP luminescence, 48 h; reference of the scale not given here;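 active means replicate mean above 50%; inconclusive means above 50% but judged a plate artefact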;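 further: 50 nL library stock added to about 25 µL; numbers are from one replicate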
# Sa ugtP lethal = growth inhibition of ugtP-null S. aureus, primary screen, RN4220 ugtP deletion, OD600. 16 h; some inactives read as strong as hits. growth inhibition, % (test concentration not listed). actives 0.54% (n = 330,000). AID 1259309, 2017;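 active means z-score under -3 and OD600 up to 0.15 on both plates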;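 further: plate controls were untreated wells for no effect and antibiotic for full effect; wells of about 80 µL received 100 nL stock; the first replicate is given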
# PrP 5UTR inh = inhibition of PrP 5' UTR reporter expression; cell-based PrP 5' UTR mRNA reporter, plate reader; inhibition, % (test concentration not listed); actives 0.35% (n = 340,000); AID 488862, 2010;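 active means every replicate at 50% or more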;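 further: 0 = median of the neutral control wells; tested in H4 reporter cells; numbers are from one replicate; inactives centre near -14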
# Mtb hypoxia rep = PubChem AID 1159583 | M. tuberculosis hypoxia-regulated fluorescent reporter, fluorescence | fluorescence inhibition, % (no concentration beside the values) | actives 0.1% (n = 300,000);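 active means 35 to 45% if threefold the growth effect, above 45% if 1.5-fold the growth effect; inactive means the rest, general growth blockers included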;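 further: wells of about 50 µL received 100 nL stock; 0% = vehicle wells and 100% = reference inhibitor wells; whole bacteria with a GFP reporter of the hypoxia response; strong numbers were not always called active; many hits fall short of the cut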
# RN4220 kill = growth inhibition of S. aureus RN4220, primary screen, OD600 | 16 h | inhibition, % (test concentration not listed) | actives 0.33% (n = 330,000) | AID 1259311, 2017;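 active means z-score of -3 or lower and OD600 up to 0.18 on both plates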;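 further: plate controls were untreated cells for no effect and reference antibiotic for full effect; stock transfer was 100 nL into about 80 µL; one replicate is shown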
# Bead autofluor = compound fluorescence in toxin protease inhibitor counterscreen; AID 624483; fluorescence intensity (test concentration not listed); actives 3.1% (n = 360,000); compound autofluorescence counterscreen, microsphere flow cytometry; stronger effect = higher value;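 active means at least 3 SD above the mean of all compounds, about 16000 in these data; inconclusive means too few beads counted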;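 further: 100 nL of 1 mM stock went into each well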
# Mtb hypoxia rep growth = further read-out of Mtb hypoxia rep, marked with its call; growth inhibition, %; measured here: M. tuberculosis growth (absorbance);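 0% = vehicle and 100% = reference antibiotic; read after six days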
# Active calls of the source: *; u = inconclusive; x = no result given; & = joins results of further samples.
SMILES,BJeLR viability,Sa ugtP lethal,PrP 5UTR inh,Mtb hypoxia rep,Mtb hypoxia rep growth,RN4220 kill,Bead autofluor
CSc1ccccc1-c1nnc(-c2ccc(C)cc2)o1,-2,-2,-46,x,x,3.5,2181
CCOC(=O)C(C)NC(=O)Cn1ncc2c(=O)oc3ccc(C)cc3c21 (stereo not drawn),3,4,-7,5,1,2.6,4938
CN(C)C(=O)c1cn(-c2ccccc2)nc1-c1cccc([N+](=O)[O-])c1,-2,4,-23,-3,-3,2.0,3803
CC(=O)c1cccc(NC(=O)C(C)N(C)CC(=O)Nc2ccc(Cl)cc2)c1 (stereo not drawn),5,9,-18,-3,11,4.2,4320
COc1ccc(CC(=O)N2CCc3cc(OC)c(OC)cc3C2O)cc1OC (stereo not drawn),-4,x,-32,x,x,x,3986
Cc1[nH]c2ccccc2c1C(=O)C(C)OC(=O)c1ccc(Cl)nc1 (stereo not drawn),-1,1,-17,1,9,0.3,5725
CCOCCOC(=O)C1=C(C)NC2=C(C(=O)CC(c3cccs3)C2)C1c1ccsc1 (stereo not drawn),-8,17,-16,9,-3,4.6,12553
CC(=O)c1ccc(N=Nc2ccc(N)cc2)cc1,6,-5,-18,14,-1,1.7,3363
COc1ccc(Cn2c(C)c(C)c(C#N)c2NC(=O)Nc2cccc(Cl)c2)cc1,-2,-5,-24,0,10,-0.9,5424
CSc1ccc(C=NN2CCN(Cc3ccc(Cl)cc3)CC2)cc1,x,0,x,-1,7,19,x
COC(=O)CNC(=O)C1CCN(C(=O)OCc2ccccc2)CC1,-5,8,-17,x,x,1.1,2660
CC(=O)Cc1nsc(NC(=O)c2cc(-c3ccccc3Cl)oc2C)n1,11,4,-20,6,1,8.1,4667
CC1CC(C)CN(CCCNC(=O)C2CCCN(c3ncnc4c3nc3n4CCCCC3)C2)C1 (stereo not drawn),-3,-1,-15,13,2,3.2,5582
Cc1ccc(N(C)C(=O)Oc2cccc3ccc(C)nc23)cc1,-12,9,5,x,x,5.7,2542
Cc1ccc2nsnc2c1NC(=O)c1ccc([N+](=O)[O-])cc1,18,3,-9,4,2,6.8,2455
O=C(NCCc1ccccc1)C1CCN(C(=O)NCc2ccccc2)CC1,-7,5,0,5,14,0.9,9248
CCC(=NCCO)c1c(O)n(-c2ccc(Cl)cc2)c(=O)[nH]c1=O,-10,9,-49,12,12,5.1,23929*
CC(C)CC(=O)NS(=O)(=O)c1ccc(N)cc1,-6,-3,-13,x,x,-1.7,2699
O=S(=O)(NN=C/C=C/c1ccccc1)c1ccccc1,x,16,x,4,2,7.2,x
O=C(Nc1ccc(F)cc1)c1cncs1,4,11,-18,15,5,-4.6,2925
COc1ccc(NC(=O)Cn2nc(C(F)(F)F)c3c2CCCC3)cc1OC,0,-9,3,3,8,2.2,22117*
CCN1c2cccc3cccc(c23)S1(=O)=O,0,2,-10,1,-3,3.3,11258
COc1cc(/C=N/NC(=O)CCN2CCN(Cc3ccccc3)CC2)cc(OC)c1OC,-11,x,-7,x,x,x,2486
Cn1c(=O)c(=O)n(C)c2cc(S(=O)(=O)N3CC(=O)N(CCc4ccccc4)C(=O)C3)ccc21,4,3,x,7,0,0.8,5070
Cc1[nH]c2ccccc2c1C(=O)COC(=O)C(C)C,-5,-2,-22,2,6,1.0,11490
O=C(CN1CCCc2ccccc21)N/N=C/c1ccccc1,-15,x,-61,x,x,x,9666
COc1cccc(S(=O)(=O)Nc2cccc(C(=O)N3CCCC3)c2)c1,5,3,-14,7,-3,1.8,14214
O=C(O)CCc1ccc(-c2ccccc2)n1-c1cccc(O)c1,4,29,-8,13,6,5.2,11155
O=[N+]([O-])c1cc(Cl)ccc1-c1nc(-c2ccccc2)no1,-2,54,-82,-5,17,-3.7,2478
CCOC(=O)c1ccc(-n2c(CCC(=O)O)ccc2-c2ccc(F)cc2)cc1,5,x,-17,x,x,x,4487
COCCNC(=O)CN(C(=O)CCC(=O)Nc1cc(C)on1)c1ccc(C)cc1C,2,0,-32,11,14,1.1,4095
COc1cc(C(=O)Nc2ccc(-c3nc4cc(C)ccc4o3)c(O)c2)cc(OC)c1OC,-6,52,-21,1,-5,-10,9572
COc1cc2cc(CN(CCCN3CCOCC3)C(=O)Nc3ccc(F)cc3)c(=O)[nH]c2cc1OC,4,4,-18,0,-1,2.5,4097
COc1ccnc(Oc2ccc(C)cc2)c1C#N,7,0,-88,2,5,5.8,10629
C#CCn1c(O)c(N=NC(=O)C(O)c2ccccc2)c2ccccc21 (stereo not drawn),-7,6,-9,18,13,3.2,3714
O=[N+]([O-])c1ccc(N/N=C/c2ccc(OCc3cccc4ccccc34)cc2)nc1,-1,x,-52,x,x,x,4034
O=C(c1ccccc1F)N1CCN(C(=O)C2CC2)CC1,8,x,-12,x,x,x,5537
O=C(O)COc1c(-c2ccco2)oc2ccccc2c1=O,-1,10,1,5,-5,5.4,2548
C/C(Cn1nnc([N+](=O)[O-])n1)=N\NC(=O)c1ccncc1,0,x,-12,x,x,x,4071
CCOC(=O)c1c(NC(=S)N2CCN(C)CC2)sc2c1CCN(C(=O)OCC)C2,5,5,4,25,27,2.9,3956

# Looked up by structure from the list above, two records:
SMILES,BJeLR viability,Sa ugtP lethal,PrP 5UTR inh,Mtb hypoxia rep,Mtb hypoxia rep growth,RN4220 kill,Bead autofluor
COc1cc(/C=N/NC(=O)CCN2CCN(Cc3ccccc3)CC2)cc(OC)c1OC,-11,x,-7,x,x,x,2486
COc1ccc(NC(=O)Cn2nc(C(F)(F)F)c3c2CCCC3)cc1OC,0,-9,3,3,8,2.2,22117*

# (next part)
SMILES,BJeLR viability,Sa ugtP lethal,PrP 5UTR inh,Mtb hypoxia rep,Mtb hypoxia rep growth,RN4220 kill,Bead autofluor
O=C(O)/C=C/C(=O)Nc1ccc(OC(F)F)cc1,-1,6,-27,19,2,4.3,4237
CCOc1ccc(NC(=Nc2nc(C)cc(C)n2)NC(=O)CC)cc1,x,1,x,3,-3,5.1,x
CS(=O)(=O)NCCOc1ccc(S(=O)(=O)NCCOc2ccccc2)cc1,1,5,-35,-2,-2,6.9,4743
O=C(N/N=C/c1cn(-c2ccccc2)nc1-c1cccnc1)c1cccnc1,5,x,8,x,x,x,4341
CCOc1ccc(NC(=S)Nc2ccccc2C2(C)CC2)cc1,-4,16,-12,14,15,8.2,3151
O=C(Nc1ccc(C(=O)N2CCOCC2)cc1)c1cccs1,11,3,-4,x,x,3.0,4513
COc1cc(NC(=O)CCc2nnc3ccc(N4CCC(C)CC4)nn23)cc(OC)c1,1,2,-24,-4,4,-2.2,5378
CCOC(=O)C1CCN(C(c2cc3cc(C)cc(C)c3[nH]c2=O)c2nnnn2C2CCCCC2)CC1 (stereo not drawn),7,2,-12,5,5,6.4,11269
Cc1ccc(C)c(C(=O)OCC(=O)Nc2cccc(S(=O)(=O)NC3=NCCCCC3)c2)c1,-3,6,-6,5,8,-5.2,5348
CCCc1nnc(SCc2ccc(OC)cc2)n1N,-2,3,-8,6,-5,5.1,4086
COc1ccc(NC(=S)NNC(=O)CCn2cc([N+](=O)[O-])cn2)cc1,-3,-4,-18,4,-6,3.5,3508
O=C(/C=C/c1ccc2c(c1)OCO2)NCc1ccco1,-5,0,-24,15,27,-0.2,2058
COCCNC(=O)C1CCN(Cc2cccc(OCc3ccccc3)c2)CC1,-10,6,-3,1,-4,-1.4,3226
c1ccc2c(c1)oc1c(NCCCN3CCOCC3)ncnc12,-4,-6,-8,-1,-3,0.4,2536
Cc1ccc(-n2ncc3c2CC(C)(C)CC3NC(=O)c2cc[n+]([O-])cc2)cc1 (stereo not drawn),-3,3,0,16,-39,-1.9,4411
COC(=O)Cn1cnc(=O)c(C#N)c1/C=C/N(C)C,x,-7,-5,1,0,-28,2447
c1ccc(-c2nc3nonc3nc2-c2ccccc2)cc1,-1,98*,-14,-8,19,97*,7942
COc1ccc(Cl)cc1N1CC(C(=O)Nc2nccs2)CC1=O (stereo not drawn),10,1,-24,2,9,4.3,2713
O=C(c1cc2c(s1)-c1ccccc1S(=O)(=O)C2)N1CCCC1,20,4,-33,6,6,1.6,4069
CCOc1ccc(/C=C/C(=O)C(C(N)=O)=C2SCCS2)cc1,-14,x,-38,x,x,x,2165

# Taken from above.
# `Cc1ccc(-n2ncc3c2CC(C)(C)CC3NC(=O)c2cc[n+]([O-])cc2)cc1` (stereo not drawn) in Mtb hypoxia rep growth is entered as -39
# `c1ccc2c(c1)oc1c(NCCCN3CCOCC3)ncnc12` in Sa ugtP lethal is entered as -6
# `CCOc1ccc(NC(=Nc2nc(C)cc(C)n2)NC(=O)CC)cc1` in Mtb hypoxia rep is entered as 3
# `COCCNC(=O)C1CCN(Cc2cccc(OCc3ccccc3)c2)CC1` in RN4220 kill is entered as -1.4
# `COc1ccc(NC(=S)NNC(=O)CCn2cc([N+](=O)[O-])cn2)cc1` in BJeLR viability is entered as -3

# Going on with the list:
SMILES,BJeLR viability,Sa ugtP lethal,PrP 5UTR inh,Mtb hypoxia rep,Mtb hypoxia rep growth,RN4220 kill,Bead autofluor
Cc1nc(C)c(-c2ccc(SCc3cccc(F)c3)nn2)s1,-5,-9,-23,10,3,8.1,5613
Cc1ccc(N(CC(=O)NCc2ccccc2)C(=O)c2csnn2)c(C)c1,-11,1,-16,3,-3,3.5,6119
CCC(CO)[n+]1c(C)cc(/C=C2\Sc3ccccc3N2Cc2ccccc2)cc1C (stereo not drawn),x,100*,-2,x,x,100*,10304
Cc1ccc(-c2nn(CCC#N)cc2C(=O)O)cc1C,-5,5,-26,-3,2,1.9,5308
O=C(CSc1nnc(Nc2ccccc2)s1)Nc1cccnc1Cl,-12,8,6,6,4,8.1,7186
O=C(C1CCCN(S(=O)(=O)c2cccc3cccnc23)C1)N1CCN(c2ccc(F)cc2)CC1 (stereo not drawn),0,4,-13,x,x,-0.6,4690
C[C@H](NC(N)=O)C(=O)Nc1ccc2c(c1)OCO2,10,2,-21,2,-3,-0.5,4469
Cc1ccc(NC(=O)CSc2ccc(-c3cccnc3)nn2)cc1,-2,3,-14,-1,8,2.2,x
O=C(COc1ccc(-c2ccccc2)cc1)Nc1cccnc1,x,5,-18,13,7,-1.2,u
CC1=Nc2cc(C(=O)N3CCCCC3)ccc2Sc2ccc(C)cc21,-15,-2,-20,-1,0,3.0,4994
CCNc1nc(SCCOc2ccc(C)cc2)nc(N(C)C)n1,1,37,-13,9,3,1.2,5572
CCc1nc2ccccc2c(C(=O)Oc2cccc3cccnc23)c1C,0,7,-26,9,2,5.0,5764
C/C=C(\CS(=O)(=O)c1ccccc1)S(=O)(=O)c1ccccc1,-7,2,-15,2,3,2.7,9480
Cc1cc(N(C)C)c(C#N)c(=O)[nH]1,4,3,3,x,x,4.7,3859
COC(=O)C1CC1C(NS(=O)(=O)c1ccccc1)c1ccccc1 (stereo not drawn),x,2&5,x,6&5,13&8,7.3&8.8,x
CC1(C)Cc2c(c(-c3ccccc3)[nH]c(=O)c2C#N)CS1,5,9,3,4,-1,0.4,3238
O=C(Cc1ccc([N+](=O)[O-])cc1)Nc1ccc2c(c1)OCO2,-5,-3,-45,1,7,4.7,2369
Cc1csc(NC(=O)c2ccco2)c1C(=O)c1ccccc1,-5,1,-12,6,4,5.0,6315
CCOC(=O)N1CCN(S(=O)(=O)c2ccc(C)c([N+](=O)[O-])c2)CC1,2,1,-20,7,-3,3.0,4800
CC(C)c1ccccc1NC(=O)c1ccc(CN(c2ccccc2)S(=O)(=O)c2ccccc2)cc1,0,-2,x,1,7,-1.3,x
O=C(Nc1ncccn1)c1ccc(Cl)c([N+](=O)[O-])c1,-7,0,-2,-4,3,-1.0,x
Cc1ccc(S(=O)(=O)CCC(=O)Nc2ccc(Br)cc2)cc1,-2,9,-12,5,10,7.1,2702
CN(C)CCCNc1oc(-c2ccccc2Cl)nc1S(=O)(=O)c1ccccc1,x,5,-8,-5,12,1.7,6174
COc1ccc(C(=O)C2CCCN(C(=O)CCc3ccccn3)C2)c(C)c1 (stereo not drawn),-2,5,12,9,9,4.0,4461
COc1cc(NC(=O)CC(C)=NNC(=O)C(=O)NCCO)c(OC)cc1Cl,x,4,x,-4,-14,3.7,x
COc1ccccc1/C=C1\SC(=O)N(CC(=O)NCCCn2ccnc2)C1=O,3,2,-6,0,-3,3.3,6502
O=C(NC(=S)Nc1cccnc1Cl)c1ccc(F)cc1,-17,65,-24,-8,7,2.0,5742
Cc1cccc(-n2c(-c3ccccc3)nc3ccccc3c2=O)n1,10,12,-24,-1,1,4.0,4554
O=C(NNC1=C(C(=O)C(F)(F)F)CCC1)c1cccnc1,1,-6,-10,-8,-2,1.8,3389
Cc1cc(-n2cnc(-c3cn(C)nc3C)n2)no1,7,x,-31,x,x,x,3769

# No enrichment for hits; overall some 3.9% were active at least once.
